# Source: PubChem (National Center for Advancing Translational Sciences (NCATS))
# gsp antagonist: qHTS for Antagonists of gsp, the Etiologic Mutation Responsible for Fibrous Dysplasia/McCune-Albright Syndrome: qHTS; 340,000 compounds, 0.4% hits; Potency, µM (highest dose often 76.9 µM), for inactives: at the top dose activity change, negative = inhibition, usual class: inhibitors; AID 624288, 2012; gsp-mutant cells, cAMP HTRF, 30 min; control for the full effect not named in the record; active = falling curve of any shape with a large fitted effect; inconclusive = falling curve, mostly with a smaller effect; inactive = flat or rising curve; cell line not stated here;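 note: intracellular cAMP measured with PDE inhibitor Ro 20-1724 present during compound exposure; potency is the fitted concentration of half-maximal effect; % is set by controls: 0 for no effect and ±100 for the full control effect; nearly all actives have a fitted effect of over 65% in size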
#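 HTRF cAMP read-out (cAMP-d2 plus anti-cAMP antibody-K in lysis buffer, 30 min RT). Before lysis, cells are exposed to compounds with […] for 30 min at 37C in DPBS containing Ca/Mg, BSA and Tween 20.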
# gsp agonist: qHTS for Agonist of gsp, the Etiologic Mutation Responsible for Fibrous Dysplasia/McCune-Albright Syndrome: qHTS | gsp mutant cells, cAMP HTRF, 30 min; control for the full effect not named in the record | Potency, µM (top dose mostly 76.9 µM), inactives show top-dose activation (cAMP increase), usual class: activators | 340,000 compounds, 0.13% hits; active = well fitted activation curve with a large enough effect; inconclusive = small, poorly fitted or top-dose-only effect, or another doubt; inactive = no such curve, though single readings can be large or run the other way; cell line not stated here;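 note: phosphodiesterase inhibitor Ro 20-1724 added with compounds to block cAMP breakdown; potency is the fitted concentration of half-maximal effect; nearly all actives have a fitted effect of over 60% in size; about a fifth of the inactives were tested at one dose only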
#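 Cells in DMEM/10% FBS with G418 were pretreated with compounds in DMSO plus […] (300 uM stock) for 30 min at 37C. cAMP was measured by HTRF (cAMP-d2 plus anti-cAMP antibody-K) after 30 min at room temperature.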
# TRPML1 ag: qHTS for Agonists of the Human Mucolipin Transient Receptor Potential 1 (TRPML1); Mucolipin-1 (Homo sapiens), Q9GZU1; TRPML1-expressing cells, Ca2+ dye fluorescence, FDSS; host cell line not named in the record; reference of the full effect not given here; activation, % (test concentration not listed); 410,000 compounds, 0.12% hits; AID 624414, 2012; in the data active = activation above about 50%; inconclusive = about 30% to 50%; inactive = below about 30%; note: 0% is about no effect; the text of the record puts the active cut at 80%
# Target sequence (Q9GZU1 whole entry, looked up): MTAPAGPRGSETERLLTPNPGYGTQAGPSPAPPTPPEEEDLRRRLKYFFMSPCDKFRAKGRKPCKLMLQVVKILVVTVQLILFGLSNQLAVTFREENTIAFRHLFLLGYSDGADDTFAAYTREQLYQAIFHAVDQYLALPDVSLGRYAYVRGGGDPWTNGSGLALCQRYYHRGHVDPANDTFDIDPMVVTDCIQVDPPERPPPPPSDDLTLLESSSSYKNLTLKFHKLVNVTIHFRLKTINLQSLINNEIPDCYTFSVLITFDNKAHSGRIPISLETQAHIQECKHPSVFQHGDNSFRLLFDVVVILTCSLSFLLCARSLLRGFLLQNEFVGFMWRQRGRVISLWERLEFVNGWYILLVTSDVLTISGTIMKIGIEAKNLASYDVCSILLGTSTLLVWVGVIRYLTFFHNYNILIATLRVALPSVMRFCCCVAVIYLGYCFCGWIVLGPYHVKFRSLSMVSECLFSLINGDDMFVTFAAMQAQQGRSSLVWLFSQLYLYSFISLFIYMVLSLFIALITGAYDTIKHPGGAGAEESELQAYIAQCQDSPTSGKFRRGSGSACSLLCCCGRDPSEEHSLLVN
#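 Kinetic FDSS Ca2+ read in Tet-induced TRPML1-DL cells (ABD Ca8 dye plus quencher, 45-90 min RT loading): baseline, then compound, then 110 s agonist window; EC80 agonist 54-4 at 4uM final added afterwards for a 110 s antagonist window.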
# ClpP mod: qHTS Assay for Activators of ClpP | ATP-dependent Clp protease proteolytic subunit (Bacillus subtilis (strain 168)), P80244 | purified B. subtilis ClpP, FRET peptide cleavage, 20 min | Potency, µM (highest dose often 57.5 µM), without a hit: top-dose activity change, negative = active | 340,000 compounds, 1.9% hits | AID 651965, 2013; active = well fitted falling curve with a large enough effect; inconclusive = small, poorly fitted or top-dose-only effect; inactive = no such curve, though single readings can be large or run the other way; note: potency is the fitted concentration of half-maximal effect; the source files actives as falling curves though it sought activators and does not explain the sign; nearly all actives have a fitted effect of over 65% in size; many hits overshoot -100%
# Target sequence (P80244 whole entry, looked up): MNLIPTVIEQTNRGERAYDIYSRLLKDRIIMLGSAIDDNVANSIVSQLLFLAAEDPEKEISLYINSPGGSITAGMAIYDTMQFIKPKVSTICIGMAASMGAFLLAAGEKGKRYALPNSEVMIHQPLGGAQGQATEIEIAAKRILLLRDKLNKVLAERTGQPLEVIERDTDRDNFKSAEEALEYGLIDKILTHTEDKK
#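 ClpP 10 microg/mL final, pH 8 Tris/KCl buffer with BSA, glycerol, Tween-20; compound pinned in; FRET-FV substrate; RT 20 min; Ex320/Em430; ΔFRET vs ADEP 5.8 microM, DMSO, no enzyme.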
# TRPML1 blocker: qHTS for Inhibitors of the Human Mucolipin Transient Receptor Potential 1 (TRPML1); TRPML1-inducible cells, Ca2+ dye fluorescence, FDSS; stronger effect = lower value; inhibition of EC80 agonist-evoked calcium signal; activity change, negative = inhibition, % (test concentration not listed); AID 624415, 2012; Mucolipin-1 (Homo sapiens), Q9GZU1; 390,000 compounds, 0.02% hits; in the data active means activity change below about -50%; inconclusive means about -30% to -50%; inactive means above about -30%;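 note: stimulus is agonist 54-4 at its EC80 concentration; % is set by controls: 0 for no effect and ±100 for the full control effect; compound concentration not given in the record; the text of the record puts the active cut at -80%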
#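 Tet-induced TRPML1-DL cells loaded with Ca8 no-wash calcium dye were read kinetically on FDSS. Compound addition was followed by EC80 agonist 54-4 (4 uM final); inhibition was read over 110 s.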
# Menin MLL FP FL: qHTS Assay for Inhibitors Targeting the Menin-MLL Interaction in MLL Related Leukemias: Competition With Fluorescein Labeled MLL-derived Peptide. Fluorescence polarization, fluorescein-MLL peptide displacement from menin. FP activity change, % at 61.4 µM. 290,000 tested, under 10 active; inconclusive = falling polarisation curve, or a change in total fluorescence; inactive = total fluorescence flat and polarisation flat or rising; no compound was filed as active; the % refers to the polarisation; negative = inhibition;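 note: % of control where 0% means no effect; inhibitors lower the polarisation; unlabelled MLL peptide was the positive control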
# Starred values were filed as active, the others as inactive; ? = inconclusive; · = no result given; [ ] = remark or other dose.
SMILES	gsp antagonist	gsp agonist	TRPML1 ag	ClpP mod	TRPML1 blocker	Menin MLL FP FL
Cc1cc(OCC(=O)Nc2cccc(S(=O)(=O)N3CCCC3)c2)ccc1Cl	-13%	2%[15.4 µM]	4.3	·	33	·
COCCOC(=O)C1=C(C)NC(=O)NC1c1cccs1 (configuration not stated)	6%	-34%[inhibitor]	-0.8	1.3%	-3	-1.5
CCCCCCN1CC(O)=C(c2nc3ccccc3[nH]2)C1=N	6%	-43%[inhibitor]	0.2	-1.5%	8	3.8
CC(C)C(c1nnnn1C(C)(C)C)N1CCN(c2cccc(Cl)c2)CC1 (configuration not stated)	-14%	0%	1.1	0.6%	33	-0.9
Cc1ccc(C)c(S(=O)(=O)N2CCN(C(=O)CSc3ccccc3F)CC2)c1	-16%	55%	0.4	-1.1%	4	0.1
CCOC(=O)C1=C(CSc2nc(-c3ccccc3)ccc2C#N)OC(N)=C(C#N)C1c1ccc(OC)cc1 (configuration not stated)	-6%	?	5.4	-1.8%	21	?
CN1C(=O)NC(c2ccccc2[N+](=O)[O-])C2=C1CC(C)(C)CC2=O (configuration not stated)	2%	21%	1.3	·	-8	-6.4
CC(=O)N(C)c1ccc(NC(=S)Nc2cccc3ccccc23)cc1	9%	-40%[inhibitor]	-0.7	32µM*	38	-0.4
CCCc1c(C(=O)OCC)[nH]c2c1C(=O)CCC2	2%	2%	1.8	-5.7%	11	3.2
CC(CNC(=O)C1CCCCC1)NC(=O)C1CCCCC1 (configuration not stated)	1%	-18%	0.0	0.8%	18	0.9
Cc1ccc2c(c1)cc(C(=O)N1CCN(c3ccccn3)CC1)n2C	-19%	6%[15.4 µM]	-0.4	-0.8%	21	-9.8
Cc1ccc(Cn2c(=N)c(C(=O)NC3CCCCC3)cc3c(=O)n4ccccc4nc32)cc1	-16%	18%	-0.4	3.4%	-23	·
COc1ccc(OC)c(S(=O)(=O)NC2CC(=O)N(c3ccc(C)c(C)c3)C2)c1 (configuration not stated)	0%	?	1.1	-0.9%	15	·
COc1ccc2nc(NC(=O)CSc3nnnn3C)sc2c1	-7%	0%	0.0	0.2%	-3	-3.2
COC(=O)CSC1=NS(=O)(=O)c2ccccc21	-7%	-52%[inhibitor]	-0.2	-1.2%	-2	1.8
COc1ccc(NS(=O)(=O)c2cc(NC(=O)/C=C/c3cc(OC)ccc3OC)ccc2N2CCCCC2)cc1	11%	?	-0.1	-20%	-2	0.3
Cc1ccc(/C=C2\SC(=S)N(CCC(=O)N3CCOCC3)C2=O)cc1	8%	12%	-1.2	1.5%	6	·
O=S(=O)(c1ccc(NC(=S)NN=C(C2CC2)C2CC2)cc1)N1CCOCC1	2%	4%	-0.6	-10%	-3	-3.0
CCn1c(O)c(N=NC(=O)c2cccc(S(=O)(=O)N3CCCCC3)c2)c2ccccc21	?	-6%	2.2	-0.1%	69	2.6
O=c1c2cc(N3CCOCC3)ccc2[nH]c(=S)n1Cc1cccc(Cl)c1	9%	1%	-0.7	9.4%	18	4.5
O=C(Nc1nnc(-c2ccccc2)s1)c1ccccc1F	1%	9%	3.6	-20%	-8	-6.6
Cc1c(/C(O)=C2\C(=O)C(=O)N(CCCN(C)C)C2c2cccs2)cnn1-c1ccccc1 (configuration not stated)	-10%	?	·	-0.9%	·	·
COc1ccc(CNC(=O)[C@H](C)NC(=O)C2CCN(S(=O)(=O)c3ccc(C)cc3)CC2)cc1	1%	-3%	-1.0	1.8%	18	2.8
Cc1cccc(NC(=O)COc2ccccc2)c1	2%	-44%[inhibitor]	3.3	0.2%	-10	4.4
CC(C)c1ccc(S(=O)(=O)N2CCN(CC(=O)Nc3ccc(Cl)cc3F)CC2)cc1	-10%	5%	1.9	0.7%	-16	·
Cc1cccc2sc(N(CCCN(C)C)C(=O)c3ccc4ncsc4c3)nc12	5%	-1%	0.9	1.2%	-8	-5.5
COc1ccccc1CNC(=O)c1nccnc1CO	14%	9%[15.4 µM]	-0.7	·	-2	6.6
COc1ccccc1NC(=O)COC(=O)c1oc2ccccc2c1C	-15%	?	3.9	-3.1%	-15	-4.9
CCCCCCOc1ccc(N2C(=O)CC(N(CCc3ccc(S(N)(=O)=O)cc3)C(C)=O)C2=O)cc1 (configuration not stated)	-1%	5%[15.4 µM]	-0.7	·	-6	1.2
CCOC(=O)Cn1cnc2c(cnn2-c2ccc(OC)cc2)c1=O	3%	-11%	0.4	·	6	-2.2
Cc1ccccc1NC(=O)COc1ccc2oc3c(c2c1)CCCC3	·	·	1.3	0.6%	41	·
O=c1c2ccccc2c(-c2ccccc2)nn1-c1cc(Cl)cc(Cl)c1	?	-15%	2.6	-5.6%	25	0.7
COc1cc(NC(C)CCCNC(C)C)c2ncccc2c1OC (configuration not stated)	?	-12%[15.4 µM]	0.3	0.3%	5	·
CC1CCc2[nH]c3ccc(C(=O)O)cc3c2C1 (configuration not stated)	-6%	-10%	-0.4	-9.0%	3	-2.7
O=C(CC1NCCNC1=O)NC1Cc2ccccc2C1 (configuration not stated)	13%	-24%	-0.4	·	10	1.7
CCC(=O)Nc1ccc(C(=O)NNC(=O)c2ccccc2)cc1	8%	19%	0.0	-4.0%	-13	-2.5
COc1ccc(-c2cccc(NS(=O)(=O)c3ccc(C)s3)c2)nn1	·	·	0.6	-3.4%	0	·
Cc1c2cnn(CC(=O)NC(C)C)c(=O)c2c(C)n1Cc1cccc(Cl)c1	·	·	-0.4	-16%	0	·
S=C(Nc1cccc(Cl)c1)Nc1ccccc1Oc1ccccc1	-5%	0%	1.7	1.6%	-8	-0.5
CCOC(=O)/C(C#N)=C\c1ccc(N2CCN(C/C=C/c3ccccc3)CC2)cc1	-12%	17%	19	1.2%	-15	?
CS(=O)(=O)N(CC(=O)NCc1ccco1)c1ccc(Cl)c(C(F)(F)F)c1	-24%	-43%[inhibitor]	0.0	1.4%	1	0.1
COC(=O)C(C)Sc1nc2c(c(=O)n(C)c(=O)n2C)n1CCC(C)C (configuration not stated)	8%	-1%[15.4 µM]	-0.5	2.1%	-5	5.7
CCOc1ccccc1/C=N/NC(=O)Cc1csc(Nc2cccc(C(F)(F)F)c2)n1	-3%	-36%[inhibitor]	2.1	-2.2%	24	-0.3
Cc1ccc(NC(=O)Cn2c(=O)oc3ccccc32)c(C)c1	1%	14%[15.4 µM]	0.6	-2.5%	0	-3.9
N#CCOc1ccc(C2=NO[C@@H]3[C@@H]4C[C@@H]([C@H]5C(=O)N(c6ccc7c(c6)OCO7)C(=O)[C@@H]45)[C@H]23)cc1	6%	-30%	0.2	2.2%	-2	4.5
Cc1ccc(C)c(N2CCN(Cc3csc(C)c3C)CC2)c1	·	·	-0.5	0.2%	15	·
O=C(CSc1ncc(C(F)(F)F)cc1Cl)N1CCNC1=O	-2%	0%	-0.6	1.3%	-7	·
C=CCN(CC=C)c1nc2ccccc2nc1C(C#N)C(=O)OC(C)C (configuration not stated)	-27%	-5%	2.8	2.1%	17	?
NC(=O)CCC(NS(=O)(=O)c1ccc(Cl)cc1)C(=O)NCc1ccc(Cl)cc1 (configuration not stated)	-5%	-51%[inhibitor]	0.1	0.1%	4	1.9
N#Cc1c(N)nc(SCC(=O)NCc2ccc3c(c2)OCO3)c(C#N)c1-c1cccs1	28%	?	0.8	28%	-13	-3.4
CCOC(=O)N1CCC(N2CCN(C3CCCC3)C(CCO)C2)CC1 (configuration not stated)	3%	22%[15.4 µM]	0.0	·	2	0.2
CC(C)CCNC(=O)CCNS(=O)(=O)c1ccc(Cl)cc1	-5%	4%	3.1	-2.1%	-5	-6.8
COc1ccc(CCNC(=O)C2CCN(C(=O)c3ccc(C(C)(C)C)cc3)CC2)cc1OC	-6%	-32%[inhibitor]	-0.1	0.1%	19	0.3
COC(=O)c1nc(N)sc1-c1ccccc1	5%	21%	-0.9	-22%	13	-1.1
COc1cccc(NC(=O)Nc2cnccn2)c1	-3%	2%[15.4 µM]	-0.6	·	6	0.8
CCOC(=O)CCC(NC(=O)CCCCCCCC(=O)NC(CCC(=O)OCC)C(=O)OCC)C(=O)OCC (configuration not stated)	3%	-33%[inhibitor]	-0.5	0.8%	-15	2.6
CCc1noc(C)c1C(=O)Nc1cc(Cl)ccc1N1CCOCC1	-7%	4%[15.4 µM]	2.0	·	12	·
C(=N\Nc1nc(-c2ccccc2)cs1)/c1cccnc1	?	11%	0.3	-0.9%	-27	-0.4
Cc1ccnc(NC(=O)Cc2c(F)cccc2Cl)c1	0%	0%[15.4 µM]	0.3	-2.5%	18	-2.2
Nn1cc(-c2ccccc2)nc1SCC(=O)NCC1CCCO1 (configuration not stated)	?	10%[15.4 µM]	1.0	·	4	14

# Other entries:
SMILES	gsp antagonist	gsp agonist	TRPML1 ag	ClpP mod	TRPML1 blocker	Menin MLL FP FL
COc1ccnc2c1c(=O)n(Cc1c(F)cccc1Cl)c(=O)n2C	6%	-46%[inhibitor]	0.1	1.7%	24	1.9
O=C(O)c1ccc2cccc(O)c2n1	-11%	-12%[15.4 µM]	3.1	·	33	-0.4
Cc1ccc(S(=O)(=O)c2ccc([N+](=O)[O-])o2)cc1	-5%	-13%	0.6	-0.3%	3	·
COc1ccc(COC(=O)c2ccc(C)c(S(=O)(=O)N3CCOCC3)c2)cc1F	3%	?	2.1	?	10	·
CC(C)(C)c1nc(SCC(=O)NNC(=O)c2ccccc2)c2ccccc2n1	-5%	10%[15.4 µM]	1.4	·	10	-2.9
Cn1nnc2c[n+](CC(=O)c3ccc(Cl)cc3)cc(Br)c21	7%	29%	-0.3	·	3	?
O=C(Nc1ccc(C(=O)N2CCCC2)cc1)c1cccc(C(F)(F)F)c1	-20%	0%	1.2	-2.3%	-17	·
COc1cccc(-c2ncc3ccccc3c2CO)c1	1%	19%	-0.2	0.8%	-5	·
CCOc1ccc(Sc2cc(C(=O)NCc3ccc(F)cc3)c3ccccc3n2)cc1	·	·	5.8	26%	-17	·
